Screening results as filed in PubChem BioAssay.
D2 PAM: human D2 receptor positive allosteric modulation; P14416; DiscoveRx D2 beta-arrestin cells, luminescence, 90 min; 100% = 57 uM dopamine signal; potentiation, % (no concentration beside the values); hit rate 0.23% among 360,000; AID 624464; active = potentiation of 50% or more; inconclusive = 30% to 50%; inactive = 30% or less;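 also: compound concentration not given in the record; tested on top of an EC20 dose of dopamine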
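PathHunter beta-arrestin assay in DiscoveRx D2 cells. Compounds were added with an EC20 of dopamine (50 nM final) for 90 min at 37 deg C. Luminescence was read 1 h after detection reagent, with 57 uM dopamine as the EC100 control.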
D2 ag: agonists of human D2 dopamine receptor (beta-arrestin) | P14416 | DiscoveRx PathHunter D2 beta-arrestin, luminescence, 90 min; 100% = 57 uM dopamine signal | activation, % (concentration not given with the values) | hit rate 0.084% among 360,000 | AID 624465; in the data active = activation above about 40%; inconclusive = about 15% to 40%; inactive = below about 15%; also: compound concentration not given in the record; the text of the record calls up to 30% inactive
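DiscoveRx PathHunter D2 beta-arrestin cells (2,100/well) attached overnight, then compound-stimulated 90 min at 37 C in HBSS/10 mM HEPES/0.1% Tween-20 buffer; beta-galactosidase complementation read by luminescence after 1 h at ambient temperature. Dopamine 57 uM final (EC100) as control.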
TRPML1 blocker: inhibitors of human TRPML1 channel; hit rate 0.02% among 390,000; activity change, negative = inhibition, % (no concentration beside the values); TRPML1-inducible cells, Ca2+ dye fluorescence, FDSS; stronger effect = lower value; inhibition of EC80 agonist-evoked calcium signal; AID 624415; Q9GZU1; in the data active means activity change below about -50%; inconclusive means about -30% to -50%; inactive means above about -30%;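 also: stimulus is agonist 54-4 at its EC80 concentration; % is scaled to controls: 0 for no effect and ±100 for the full control effect; compound concentration not given in the record; the text of the record puts the active cut at -80%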
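Calcium fluorescence in TRPML1-DL cells induced overnight with Tet: a 110 s read after compound pin addition, then a 110 s antagonist read after challenge with 54-4 at 4 uM final (EC80).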
Six1-Eya2 inh: Six1/Eya2 interaction inhibition; AlphaScreen GST-Six1/His-Eya2 binding, biochemical; stronger effect = lower value; control for the full effect not named in the record; activity change, % (no concentration beside the values); hit rate 0.56% among 360,000; AID 651725; in the data active = activity change below about -65%; inconclusive = about -30% to -65%; inactive = above about -30%; also: % is scaled to controls: 0 for no effect and ±100 for the full control effect; compound concentration not given in the record
Target sequence (O00167 whole entry, looked up): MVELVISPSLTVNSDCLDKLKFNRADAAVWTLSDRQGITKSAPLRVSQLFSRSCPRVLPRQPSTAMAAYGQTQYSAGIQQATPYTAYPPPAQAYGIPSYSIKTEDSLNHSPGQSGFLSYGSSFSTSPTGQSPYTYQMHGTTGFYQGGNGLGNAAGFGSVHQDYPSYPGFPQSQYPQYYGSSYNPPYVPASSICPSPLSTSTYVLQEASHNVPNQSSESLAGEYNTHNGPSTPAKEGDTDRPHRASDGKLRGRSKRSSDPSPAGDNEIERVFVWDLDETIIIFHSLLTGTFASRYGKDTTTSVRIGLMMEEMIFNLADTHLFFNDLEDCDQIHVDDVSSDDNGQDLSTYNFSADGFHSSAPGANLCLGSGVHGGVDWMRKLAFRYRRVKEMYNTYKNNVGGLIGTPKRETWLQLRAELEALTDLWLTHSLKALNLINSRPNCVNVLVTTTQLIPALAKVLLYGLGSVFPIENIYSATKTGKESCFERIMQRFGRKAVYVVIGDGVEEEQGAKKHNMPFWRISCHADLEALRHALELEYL
Target sequence (Q15475 whole entry, looked up): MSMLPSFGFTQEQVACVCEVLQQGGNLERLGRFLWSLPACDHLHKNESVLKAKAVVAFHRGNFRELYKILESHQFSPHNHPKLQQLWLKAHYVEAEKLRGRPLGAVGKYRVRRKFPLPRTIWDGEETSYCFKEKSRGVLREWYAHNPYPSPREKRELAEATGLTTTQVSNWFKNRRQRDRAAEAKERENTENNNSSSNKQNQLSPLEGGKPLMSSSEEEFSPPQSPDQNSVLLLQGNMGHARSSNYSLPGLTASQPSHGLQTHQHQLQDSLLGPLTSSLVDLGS
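AlphaScreen with GST-Six1 and His-Eya2 (5X mix: 250 nM and 500 nM), glutathione donor and nickel acceptor beads; buffer 50 mM Tris pH 8.0, 300 mM NaCl, 1 mM TCEP; 1 h at 37 C in the dark.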
TRPML1 ag: activates the human TRPML1 channel; TRPML1-expressing cells, Ca2+ dye fluorescence, FDSS; host cell line not named in the record; reference of the full effect not given here; AID 624414; activation, % (concentration not given with the values); Q9GZU1; hit rate 0.12% among 410,000; in the data active = activation above about 50%; inconclusive = about 30% to 50%; inactive = below about 30%; also: 0% is about no effect; the text of the record puts the active cut at 80%
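In this qHTS format, compounds were pin-transferred onto Ca8-dye-loaded TRPML1-DL cells induced with Tet overnight, and intracellular Ca2+ fluorescence was recorded kinetically for 110 s after a 10 s baseline. A subsequent 4uM final 54-4 (EC80) addition followed by a second 110 s read served as the antagonist phase.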
PINK1 expr mod: PINK1 expression modulation. AID 624263. hit rate 0.2% among 410,000. Potency, µM (top dose mostly 76.6 µM), for the others: at the highest dose activation (PINK1 increase), actives largely listed as activators. PINK1 immunofluorescence, high-content cytometry, 24 h; active = well fitted activation curve with a large enough effect; inconclusive = small, poorly fitted or top-dose-only effect; inactive = flat fitted curve, though single readings scatter; cell line not stated here;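 also: potency is read from the fitted curve at half-maximal effect; % of control where 0% means no effect; nearly all actives have a fitted effect of over 65% in size; a mitochondrial uncoupler was the plate control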
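A stable cell line was treated with compounds at 5 concentrations for 24 hours, with CCCP as control. PINK1 levels and mitochondrial localization were measured by immunofluorescence with mitochondrial, cell and nuclear markers after fixation, read by laser-scanning cytometry.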
Starred values were filed as active, the others as inactive; · = no result given; & = joins results of further samples; [ ] = remark or other dose.

no.	compound	PINK1 expr mod	D2 PAM	TRPML1 ag
1	CCc1ccc(C(=O)N/N=C(\C)c2cccnc2)s1	1.4%	-11	3.7
2	Cn1c(CCNC(=O)c2ccc(Cl)cc2)n[nH]c1=S	2.0%	-15	-0.5
3	COc1ccc(/C=N/NC(=O)c2ccc(OC)c(OC)c2)cc1COc1c(F)c(F)c(F)c(F)c1F	2.6%	4	1.6
4	CCOc1ccc(-c2cccc(NS(=O)(=O)c3ccc([N+](=O)[O-])cc3)c2)nn1	-3.6%	5	2.0
5	COc1ccc(C2N(c3ccc(OC)cc3)C(=O)C3CCCN32)cc1 (stereo unspecified)	-3.0%	-12	0.6
6	CSc1nc2ccc3nc(NC(=O)c4ccccc4)sc3c2s1	4.1%	-5	0.0
7	COC(=O)[C@@H]1C[C@@]2(O)[C@H](O)[C@H](O)[C@H](O)C[C@H]2N1Cc1cc(F)ccc1F	0.5%	-6	0.3
8	c1ccc(-c2noc(CSc3nc4ccccc4o3)n2)cc1	5.6%	-7	0.4
9	CCN(C(=O)c1ccc2c(Cl)c3c(nc2c1)CCC3)c1ccc(C)c(C)c1	-1.1%	-6	0.7
10	COc1ccc(CC(=O)N2CCc3c([nH]c4ccccc34)C2c2ccc(SC)cc2)cc1 (stereo unspecified)	1.0%	·	0.2
11	O=C(CCNC(=O)c1ccc(Br)o1)NCc1ccc(Cl)cc1	2.9%[38.3 µM]	-8	-0.5
12	CCn1cc(C(=O)N2CCN(c3ccccc3)CC2)c(=O)c2cc(S(=O)(=O)N3CCC(C)CC3)ccc21	-0.7%	·	-1.2
13	CCOC(=O)C1(Cc2cccc(Cl)c2)CCCN(C(=O)CCSC)C1 (stereo unspecified)	3.1%	-4	0.0
14	Cc1nnc2sc(SCC(=O)N3CCC(C)CC3)nn2c1=O	-0.2%	2	0.2
15	COc1cccc(CN(C)C(=O)CN2C(=O)NC3(CCCc4ccccc43)C2=O)c1 (stereo unspecified)	0.1%	-7	1.3

no.	D2 ag	Six1-Eya2 inh	TRPML1 blocker
1	-2.2	5	6
2	1.8	1	-5
3	4.0	3	-2
4	-0.8	6	-2
5	-1.9	-8	-9
6	-8.0	2	-4
7	-3.2	14	10
8	0.6	42	-9
9	-0.3	-11	16
10	·	·	6
11	-1.6	4	4
12	·	·	-4
13	2.6	3	16
14	2.5	-5	-2
15	-0.1	7	26

Other results
no.	compound	PINK1 expr mod	D2 PAM	TRPML1 ag
16	CS/C(N)=N/N=C/c1ccc([N+](=O)[O-])cc1	-2.3%	10	2.5
17	COc1ccc(N2CC(C(=O)Nc3nnc(SCC(=O)c4ccccc4)s3)CC2=O)cc1 (stereo unspecified)	-2.4%	-4	-0.5
18	O=C(CSc1nnc2ccccn12)c1ccccc1	1.2%	-6	-1.0
19	Cc1c(C(=O)O)oc2c1-c1nn(Cc3ccc(Cl)cc3)cc1CC2	-0.2%	·	2.8
20	COC(=O)[C@H](Cc1ccccc1)NC(=O)NCc1ccccc1	0.8%	-1	1.6
21	Cc1ccc(-n2ncc3c(NCc4cccnc4)ncnc32)cc1C	3.5%	-5	0.2
22	CCCC1C(c2ccco2)NC(c2ccco2)CC1(C)O (stereo unspecified)	-0.7%	3	-0.5
23	N#C/C(=C\c1ccc(O)c(O)c1)C(=O)NCCc1ccccc1	1.4%&-0.3%	6	0.0&0.1
24	Cc1cc(C)c(S(=O)(=O)n2ccc(-c3ccc(OCCN(C)c4ccccn4)cc3)n2)c(C)c1	1.6%	-5	0.0
25	N#CCCn1c(C(C#N)(CCC#N)CCC#N)nc2ccccc21	1.1%[38.3 µM]	-18	0.3
26	O=C(CN1CCOCC1)Nc1ccc2c(c1)CCC2	1.3%	-3	·
27	CCn1cc(C(=O)NCCc2ccccc2)c(=O)c2cc(S(=O)(=O)N3CCCCCC3)ccc21	0.1%	·	0.0
28	O=C(c1ccc(Cl)cc1)N1CCN(c2ccc([N+](=O)[O-])c(NCc3cccnc3)c2)CC1	-0.8%	-4	0.8
29	COc1ccc(C(=O)NCC(c2ccc(N(C)C)cc2)N2CCOCC2)cc1 (stereo unspecified)	0.9%	·	-0.8
30	CCCOc1ccc(NC(=O)CC2C(=O)Nc3ccccc3N2CC(=O)N2CCCC2)cc1 (stereo unspecified)	5.7%	-4	0.1

no.	D2 ag	Six1-Eya2 inh	TRPML1 blocker
16	0.3	0	6
17	-4.0	1	3
18	-2.4	20	-5
19	·	·	-12
20	0.0	7	-11
21	-0.2	-5	-3
22	0.3	3	8
23	-1.9	-17	-4
24	-0.2	-1	1
25	-0.9	8	3
26	-3.5	3	·
27	·	·	3
28	-4.3	-22	5
29	·	·	2
30	-3.3	0	-9

(list continues)
no.	compound	PINK1 expr mod	D2 PAM	TRPML1 ag
31	COc1ccc(CCC(=O)NCc2ccco2)cc1	-0.1%	0	1.4
32	COc1ccc(NC(=O)C(=O)N/N=C\c2ccc(CNC(=O)C(=O)Nc3ccc(C)c(C)c3)o2)c(OC)c1	-0.1%	-2	-0.4
33	Cc1ccc(NC(=O)COC(=O)c2cc(C)nc3ccccc23)c([N+](=O)[O-])c1	6.9%	-8	1.8
34	CCOC(=O)c1cc(-c2cccc(O)c2)oc1C	3.6%	·	-1.0
35	Cc1ccccc1OCC(=O)N(Cc1ccc(C(C)C)cc1)C1CCS(=O)(=O)C1 (stereo unspecified)	-0.6%	·	1.9
36	CC(C)(C)n1nc2c(c1NC(=O)c1cc3ccccc3o1)CSC2	0.0%	-9	-0.1
37	O=C(COc1ccccc1)n1nc(-c2ccc(Cl)cc2)nc1NCc1ccco1	·	5	0.9
38	CSc1nnc2c(n1)[nH]c1c(C)cccc12	2.8%[38.3 µM]	-1	0.0
39	Cc1cc(C)cc(NC(=O)c2nccnc2C(=O)O)c1	0.4%	-7	-0.2
40	COc1cccc(C(C(=O)NC2CCCCC2)N(C(=O)c2ccco2)c2ccc(-n3cnnn3)c(C)c2)c1 (stereo unspecified)	-0.1%	-14	-0.2
41	Cc1nn(-c2ccccc2)c(C)c1C(=O)OC(C)C(=O)Nc1ccc(C(N)=O)cc1 (stereo unspecified)	0.2%	-20	-0.4
42	COc1ccc(C(=O)OCC(=O)N(Cc2ccccc2)Cc2ccccc2)c(O)c1	0.6%	-15	0.0
43	Cc1nc2c(c(C)c1CCC(=O)NCc1ccc(F)cc1)c(=O)n(C)c(=O)n2C	1.1%	·	-0.2
44	NC(=O)C1CCN(CC(=O)Nc2nccs2)CC1	0.8%	-4	0.4
45	CCOC(=O)C1CCN(C(=O)CC(C)S(=O)(=O)c2ccc3c(c2)NC(=O)CO3)CC1 (stereo unspecified)	-1.1%	0	-0.2

no.	D2 ag	Six1-Eya2 inh	TRPML1 blocker
31	2.5	13	-12
32	0.9	-1	-5
33	-2.1	9	-1
34	·	-5	·
35	·	·	13
36	-3.4	2	-7
37	-2.5	6	1
38	-1.0	-11	-22
39	-2.6	2	18
40	0.7	0	5
41	0.7	-4	-11
42	-3.8	0	19
43	·	·	7
44	2.5	4	19
45	-2.7	9	8

Shown with values under each structure: part of the list above.
Sequence of screens – PINK1 expr mod	D2 PAM	TRPML1 ag	D2 ag	Six1-Eya2 inh	TRPML1 blocker
40	COc1cccc(C(C(=O)NC2CCCCC2)N(C(=O)c2ccco2)c2ccc(-n3cnnn3)c(C)c2)c1 (stereo unspecified)
  -0.1%	-14	-0.2	0.7	0	5
41	Cc1nn(-c2ccccc2)c(C)c1C(=O)OC(C)C(=O)Nc1ccc(C(N)=O)cc1 (stereo unspecified)
  0.2%	-20	-0.4	0.7	-4	-11
42	COc1ccc(C(=O)OCC(=O)N(Cc2ccccc2)Cc2ccccc2)c(O)c1
  0.6%	-15	0.0	-3.8	0	19
43	Cc1nc2c(c(C)c1CCC(=O)NCc1ccc(F)cc1)c(=O)n(C)c(=O)n2C
  1.1%	·	-0.2	·	·	7
44	NC(=O)C1CCN(CC(=O)Nc2nccs2)CC1
  0.8%	-4	0.4	2.5	4	19

The results go on.
no.	compound	PINK1 expr mod	D2 PAM	TRPML1 ag
46	COc1ccc(/C=N/NC(=O)CSCC(=O)Nc2ccccc2)cc1OC	7.9%[38.3 µM]	-3	0.1
47	Cc1ccc(C)c(S(=O)(=O)/N=C2\C=C(NS(=O)(=O)c3ccccc3)C(=O)c3ccccc32)c1	4.4%	-5	3.6
48	COC(=O)c1ccccc1OC(=O)c1cc[n+]([O-])cc1	-0.4%	-1	4.2
49	COc1ccc(C2=CC(=O)C[C@H](c3ccc(F)cc3)C2)cc1OC	1.9%	-4	-0.3
50	C#CCn1c(S(=O)(=O)Cc2ccc(OC)cc2)nc(-c2ccccc2)c1-c1ccccc1	1.0%[38.3 µM]	3	1.6
51	COc1cccc(-n2c(-c3ccco3)nc3nc4ccccc4nc32)c1	2.5%	-2	0.6
52	CCOP(=O)(OCC)c1nc(-c2cccc3ccccc23)oc1N1CCCCC1	-0.6%	-16	4.7
53	O=c1c2cc([N+](=O)[O-])ccc2nc2n1CCCC2	0.9%	-1	-0.9
54	O=C(c1ccccc1F)N1CCN(C(=O)C(c2ccccc2)c2ccccc2)CC1	0.1%	-3	-1.6
55	O=C(NC1CCCc2ccccc21)C1CCN(S(=O)(=O)c2cccc3nsnc23)CC1 (stereo unspecified)	1.5%	-11	-0.6
56	COc1ccccc1C(=O)NNC(=O)c1cc2ccccc2cc1O	1.7%	-11	-0.6

no.	D2 ag	Six1-Eya2 inh	TRPML1 blocker
46	2.0	-5	-11
47	1.1	-6	1
48	-3.2	6	-15
49	-1.4	-6	-2
50	-0.2	-16	4
51	-2.7	-2	-8
52	-1.7	24	32
53	-3.1	1	5
54	-4.9	17	23
55	-1.4	-9	21
56	-4.8	-7	-7
